Screening data deposited in PubChem by ICCB-Longwood Screening Facility, Harvard Medical School.
Anaer choline gr: inhibitors of anaerobic choline-dependent gram-negative bacterial growth. Gram-negative bacterium anaerobic choline minimal medium, absorbance growth; active compounds read low; many inactives read as strong as hits in the columns shown. calls only. 55,000 compounds, 0.2% hits;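 active = growth z-score on choline under -2 at 7 or 20 h with little or no fall on glycerol, limits in tiers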;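 also: stock transfer was 300 nL into about 50 µL; the organism is E. coli; final concentration not given here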
Anaer choline gr early: recorded beside Anaer choline gr, whose call it bears; z-score; measured here: choline growth z-score, timepoint 1;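 score of optical density at 7 h as mean of two plates; lower means less growth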
Numbers without * were called inactive; i = inactive; & = joins results of further samples. These rows are one share of the data; the hit share may differ from the screen's.

Anaer choline gr,Anaer choline gr early,SMILES
i,-2.2,CCc1ccc(NC(=O)Nc2ccc3c(c2)CCN3S(=O)(=O)c2ccc(C)cc2)cc1
i,-0.48,CC(C)CNC(=O)CCn1c(N2CCCC2)nc2ccsc2c1=O
i,-0.24,CCN(Cc1ccccc1)c1ccc(NS(=O)(=O)c2ccc(F)cc2)cc1C(=O)O
i,-0.19,Cc1ccc2cc3c(nc2c1)N(S(=O)(=O)c1ccc(C(C)(C)C)cc1)CC3
i,0.39,Cc1noc2c1C(c1ccc(O)cc1)C1=C(CC(c3ccc(O)cc3)CC1=O)N2 (stereo unspecified)
i,0.02,CCOC(=O)c1c(C)[nH]c(C)c1S(=O)(=O)N1CCC(C(=O)N2CCn3c2nc2ccccc23)CC1
i,0.64,CCc1ccc(NS(=O)(=O)c2c(C)sc(C)c2-c2cc(C)[nH]n2)cc1
i,-0.06,c1ccc(SCc2nnc3sc(-c4c[nH]c5ccccc45)nn23)cc1

Two of these compounds, set out differently:
smiles | Anaer choline gr | Anaer choline gr early
CCN(Cc1ccccc1)c1ccc(NS(=O)(=O)c2ccc(F)cc2)cc1C(=O)O | i | -0.24
Cc1ccc2cc3c(nc2c1)N(S(=O)(=O)c1ccc(C(C)(C)C)cc1)CC3 | i | -0.19

Other structures
Anaer choline gr,Anaer choline gr early,SMILES
i,0.23,CCCC(=O)Nc1ccc2c(c1)nc(Cn1cccn1)n2CC
i,0.69,CC(C)(C)c1ccc(-c2nc3nc(CN4CCN(CCO)CC4)cc(=O)n3[nH]2)cc1
i,-0.09,COc1ccc(C2c3cccn3-c3sc4c(c3CN2C(=O)Nc2cc(OC)ccc2OC)CCN(C)C4)cc1 (stereo unspecified)
i,-0.21,CCC(C)NC(=O)c1cc(-c2cccnc2)n(-c2ccccc2)n1 (stereo unspecified)
i,0.91&0.42,C[C@]12CC[C@@H]3c4ccc(O)cc4CC[C@H]3[C@@H]1C[C@@H](O)[C@@H]2O
i,-1.1,Cc1ccc(-c2nc(CN3CCN(C(=O)CC(C)C)CC3)c(C)o2)cc1
i,-0.46,O=C(NCc1cccc(Cl)c1)c1ccc(CN2C(=O)CSc3ncccc32)cc1
i,0.81,Cc1ccccc1COc1ccccc1C1CC(=O)Nc2c1cnn2-c1ccc2nnc(C)n2n1 (stereo unspecified)
i,-1.4,COc1ccc(-c2nonc2NC(=O)C(C)Oc2cc(C)c(Cl)c(C)c2)cc1C (stereo unspecified)
i,0.69,CCc1ccc(C2c3cccn3-c3c(c(C)nn3-c3ccccc3)CN2C(=O)NC)cc1 (stereo unspecified)
i,-0.3,CN(C)S(=O)(=O)c1ccc2c(c1)nnn2CCCC(=O)N1CCN(c2ccccc2F)CC1
i,1.5,CC(C)c1nnc2sc(-c3cnccn3)nn12
i,-0.99,CCc1nc(-c2csc(S(=O)(=O)N3CCC(C(=O)NCc4ccccn4)CC3)c2)no1
i,0.47,O=C(CC1C(=O)NCCN1C(=O)C1CC1)Nc1cccc(Cl)c1 (stereo unspecified)
i,0.83,COc1ccccc1-c1nnc(SCC(=O)c2ccc(F)cc2)n1-c1ccccc1
i,0.97,Cc1ccc2[nH]cc(CCN3CC(C(=O)Nc4nnc(C)s4)CC3=O)c2c1 (stereo unspecified)
i,-0.98,CCN(CC)S(=O)(=O)c1ccc(NC(=O)c2ccc3c(=O)n4c(nc3c2)CCCCC4)cc1
i,0.25,O=C1CC(c2cccc(O)c2)c2cnn(-c3nc4ccccc4s3)c2N1 (stereo unspecified)
i,-0.15,O=C(NC1CCCc2ccccc21)c1cc2n(n1)CCCN(Cc1cccc(F)c1)C2=O (stereo unspecified)
i,-0.17,CN1CCN(C(=O)c2ccc3cccc(O)c3n2)CC1
i,0.55,Cc1c(S(=O)(=O)N2CCOCC2)cc(C(=O)N2CCCC2)n1C
i,-0.64,COc1ccc(CCNC(=O)c2nc(Cn3cnc4ccccc4c3=O)no2)cc1OC
i,-0.85,CCCn1cnc2nc(CSc3ccccc3NC(=O)C(C)C)cc(=O)n21
i,0,Cc1nc2ccccc2n(Cc2ccc(C(=O)NCc3cccc(Cl)c3)cc2)c1=O

Rewritten as labelled records: part of the list above.
CN1CCN(C(=O)c2ccc3cccc(O)c3n2)CC1
- Anaer choline gr: i
- Anaer choline gr early: -0.17
Cc1c(S(=O)(=O)N2CCOCC2)cc(C(=O)N2CCCC2)n1C
- Anaer choline gr: i
- Anaer choline gr early: 0.55
CCCn1cnc2nc(CSc3ccccc3NC(=O)C(C)C)cc(=O)n21
- Anaer choline gr: i
- Anaer choline gr early: -0.85

Next section.
Anaer choline gr,Anaer choline gr early,SMILES
i,-0.01,O=C(NCc1ccc(F)cc1)c1ccc(-n2c(=O)c(=O)n(Cc3ccccc3)c3cccnc32)cc1
i,-1.1,O=c1c2cn[nH]c2nc(SCc2nc(-c3ccccc3)no2)n1-c1ccccc1
i,-0.33,Cc1ccc2nc(NCc3ccc(F)cc3)c3nnnn3c2c1
i,1.3,COC(=O)c1sc(NC(=O)CSc2cc(C)nc(C)n2)nc1C
i,0.2,CCCCc1nc2ccn(CC(=O)N(C)C)c(=O)c2n1Cc1ccc(-c2ccccc2-c2nn[nH]n2)cc1
i,2.4,COc1ccc(NC(=O)c2ccc(-n3nc(OCc4ccc(Cl)cc4)ccc3=O)cc2)cc1
i,0.45,CC1CCN(C(=O)CSc2nc(-c3ccc(F)cc3)cc(C(F)(F)F)n2)CC1
i,0.35,CN(CCCNC(=O)c1ccc(-c2ccc(N3CCCC3)nn2)cc1)c1ccccc1

Reformatted: results already given
O=C(NCc1ccc(F)cc1)c1ccc(-n2c(=O)c(=O)n(Cc3ccccc3)c3cccnc32)cc1
  Anaer choline gr: i | Anaer choline gr early: -0.01

O=c1c2cn[nH]c2nc(SCc2nc(-c3ccccc3)no2)n1-c1ccccc1
  Anaer choline gr: i | Anaer choline gr early: -1.1

(more compounds)
Anaer choline gr,Anaer choline gr early,SMILES
i,0.5,O=C(CSc1nc2nc[nH]c2c(=O)[nH]1)NC1CCCC1
i,0.98,COc1ccc(Cl)cc1NC(=O)Cn1c(=O)n(CCCCC(=O)NC(C)C)c(=O)c2ccccc21
i,0.13,CC(C)Cn1c(=O)c2ccccc2n2c(=O)n(CC(=O)Nc3ccccc3F)nc12
i,-0.59,Cn1cc(C(=O)Nc2ccc(F)cc2F)c2[nH]c(=O)n(-c3ccccc3)c(=O)c21
i,0.31,CNc1nc(NC(C)C)c2cnn(C)c2n1
i,-1.1,Cc1cccc(NS(=O)(=O)c2cn(C)c(C)n2)c1
i,-0.56,O=c1[nH]cnc2c(-c3cccc(Cl)c3)csc12
i,-1.5,COc1ccc(NS(=O)(=O)c2ccc(I)cc2)cc1N1CCN(C)CC1
i,0.12,COc1ccc(-c2cc(N3CCN(C(=O)NC(C)(C)C)CC3)ncn2)cc1OC
i,0.67,COc1cccc2sc(N(Cc3cccnc3)C(=O)c3ccc4c(c3)OCCO4)nc12
i,0.62,O=C(Nc1cccc(Cl)c1)c1c(O)c2ccccc2[nH]c1=O
i,0.39,Cn1c(=O)oc2cc(NC(=O)c3ccccc3)ccc21
i,-0.49,CCOC(=O)CC1=CC(SCC(=O)NC2CCc3ccccc32)=Nc2ccccc2N1 (stereo unspecified)
i,0.07,CNC(=O)Cn1c(=O)c2cccn2c2ccc(F)cc21
i,-0.36,CCN(CC)c1ccc(NC(=O)Cn2c(C)cc(C)c(S(=O)(=O)c3ccc(Cl)cc3)c2=O)c(C)c1
i,-0.55,COc1cccc(N2CCN(S(=O)(=O)c3cc(-c4nnc(C5CCC5)o4)co3)CC2)c1
i,0.96,Cc1cccc(N2CCN(S(=O)(=O)c3ccc4c(c3)CC(C)N4C(=O)C3CC3)CC2)c1C (stereo unspecified)
i,0.46&0.25,Cc1cnc(C(=O)O)c[n+]1[O-]
i,0.11,COc1cccc(N2CCN(C(=O)c3cc(S(=O)(=O)N4CCCC4)ccc3Cl)CC2)c1
i,0.67&0.8,CCCCc1nc(Cl)c(CO)n1Cc1ccc(-c2ccccc2-c2nn[nH]n2)cc1
i,0.32,CCCCCCn1c(=O)c2c(ncn2CC(O)CO)n(C)c1=O (stereo unspecified)
i,1.1,O=C(CCC1CCCC1)N1CCCN(c2ccc(=O)n(-c3ccccc3)n2)CC1
i,0.36,Cc1cc(Sc2ccccc2NC(=O)Nc2ccccc2)n2ncnc2n1
i,1.4,COC(=O)[C@@H](N)Cc1ccc(O)c(O)c1
i,0.05,CC1CCC2(CC1)Nc1ccccc1NC2=NCc1ccc(C(F)(F)F)cc1 (stereo unspecified)
i,-0.25,COc1cccc(CN2CCN(Cc3cc(OC)ccc3OC)CC2)c1
i,0.63,CCSc1nc2c(c(=O)[nH]1)C(C(=O)Nc1cccc(C)c1)CC(=O)N2 (stereo unspecified)
i,0.33,COc1ccc(NC(=O)Cn2c(=O)nc(-c3ccccc3)c3ccccc32)cc1OC
i,-0.33,COc1ccc(Cl)cc1S(=O)(=O)N(C)CC1(C)CCOCC1
i,-0.68,CCN(Cc1ccc(Cl)cc1)Cc1cc(=O)n2nc(C(C)(C)C)sc2n1
i,0.57,Cc1nnc2ccc(-n3ncc4c3NC(=O)CC4c3ccc(OCC(C)C)cc3)nn12 (stereo unspecified)
i,-0.21,Cc1cccc(-c2ccc(Nc3ccc(C(=O)NCCC(C)C)cc3)nn2)c1
i,-1.4,COc1cccc2c1C(=O)c1c(O)c3c(c(O)c1C2=O)C[C@@](O)(C(=O)CO)C[C@@H]3O[C@@H]1C[C@H](N)[C@@H](O)[C@H](C)O1
i,-0.6,COCCCNC(=O)COCc1cc(-c2ccc3c(c2)OCO3)on1
i,-2.1,CC(C)(C)c1ccc(Cn2nc3c(S(=O)(=O)N4CCOCC4)cccn3c2=O)cc1
i,0.31,CCCC(=O)Nc1nc2c(ncn2C2O[C@H]3COP(=O)(O)O[C@@H]3[C@@H]2OC(=O)CCC)c(=O)[nH]1 (stereo partly specified)
i,-0.26,Cc1ccc(CSc2nccc3c2ccn3CC(=O)NCCCN2CCCC2)cc1
i,-1.1,COc1ccc(Cl)cc1NC(=O)C(C)n1nnc2sc3c(c2c1=O)CCCC3 (stereo unspecified)
i,-0.3,CN(C)C(=O)c1ccc2c(c1)N(CC(=O)N1CCOCC1)C(=O)CO2
i,0.36,CCCSc1nc2c(c(=O)[nH]1)C(c1sccc1C)C(C(=O)OCC)=C(C)N2 (stereo unspecified)

Profiles, looked up by structure. Order of screens: Anaer choline gr | Anaer choline gr early
`CCCSc1nc2c(c(=O)[nH]1)C(c1sccc1C)C(C(=O)OCC)=C(C)N2` (stereo unspecified) is listed with i | 0.36
`Cc1cccc(N2CCN(S(=O)(=O)c3ccc4c(c3)CC(C)N4C(=O)C3CC3)CC2)c1C` (stereo unspecified) is listed with i | 0.96
`COc1cccc(N2CCN(S(=O)(=O)c3cc(-c4nnc(C5CCC5)o4)co3)CC2)c1` is listed with i | -0.55
`COc1ccc(C2c3cccn3-c3sc4c(c3CN2C(=O)Nc2cc(OC)ccc2OC)CCN(C)C4)cc1` (stereo unspecified) is listed with i | -0.09

Carrying on.
Anaer choline gr,Anaer choline gr early,SMILES
i,0.33,COc1ccc(NC(=O)Nc2ccc3c(c2)oc(=O)n3C)cc1OC
i,1.4,CC1CCc2c(sc3nc(CCC(=O)NC4CC4)[nH]c(=O)c23)C1 (stereo unspecified)
i,-0.75,Cc1ccc2c(c1)NC(=O)C(C(=O)N1CCCC1)O2 (stereo unspecified)
i,1.2,O=C(NCc1ccccc1)c1ccc2c(c1)N(Cc1cccc(Cl)c1)C(=O)CS2
i,1.4,Cc1nn(-c2nc3ccccc3n2C)c2c1C(c1cc(F)ccc1F)CC(=O)N2 (stereo unspecified)
i,-0.23,COc1cccc(NC(=O)c2nc3nc(-c4ccc(F)cc4)cc(C(F)(F)F)n3n2)c1
i,-1.3,CCCN1CCN(C(=O)C2CCN(S(=O)(=O)c3c(C)[nH]c(C)c3C(=O)N3CCCCC3)CC2)CC1
i,-0.34,Cc1nnc(-c2cn(CC(=O)NCCN3CCOCC3)c3ccccc23)o1
i,0.47,CCNC(=O)c1nnc(-c2oc3ccc(C)cc3c2C)o1
i,-0.18,COC(=O)c1cc(C2CC2)nc2c1c(=O)n(Cc1ccncc1)c(=O)n2-c1ccccc1
i,0.11,CC1CCC2(CC1)NCCCN=C2NC1CCCCCC1 (stereo unspecified)
i,0.85&0.3&0.85,Clc1ccc2c(c1)C(N1CCNCC1)=Nc1ccccc1O2
i,0.8,NC1(C(=O)O)CCc2cc(C(=O)O)ccc21 (stereo unspecified)
i,-1.3,O=C(Nc1ccc(-c2noc(C3CCC3)n2)cc1)N1CCN(Cc2ccc3c(c2)OCO3)CC1
i,1.9,CCSc1nn(CC(=O)Nc2c(C)cc(C)cc2C)c(N)c1S(=O)(=O)c1ccc(C)cc1
i,-0.3,O=C1CC(c2noc(C3CC3)n2)CN1c1ccc(F)cc1 (stereo unspecified)
i,0.3,O=C(Nc1ccc2oc(-c3cncc(Br)c3)nc2c1)c1ccc2c(c1)OCO2
i,0.13,O=S(=O)(c1ccccc1)c1nc(-c2ccccc2)oc1NCc1ccc2c(c1)OCO2
i,0.86,COc1ccccc1-c1noc(CCc2nnc3ccc(N4CCN(Cc5ccccc5)CC4)nn23)n1
i,-0.96,COc1ccc(-c2cc3nc(C)cc(N4CCN(c5nc(C)cc(C)n5)CC4)n3n2)cc1OC
i,0.58,Cc1ccc(Cc2nc(CCNC(=O)c3cccc(Cl)c3)n[nH]2)cc1
i,1.1,Cc1cc(N2CCCCC2)nc(Nc2ccc(NC(=O)Nc3ccc(Cl)cc3)cc2)n1
i,0.61,CC(C)(C)C(=O)NC1CCN(C(=O)C2CCCC2)C1 (stereo unspecified)
i,-0.04,Cc1cc(C)cc(C(=O)NCCn2c(C(F)(F)F)nc3cccnc32)c1
i,0.64,CC1=C(C(=O)Nc2cc(C)cc(C)c2)C2(CCN(Cc3ccccc3)CC2)OC1=O
i,1.7,COc1ccc(CNC(=O)CCCN2C(=O)C(c3ccccc3)Oc3cccnc32)cc1 (stereo unspecified)
